CapD inh: Bacillus anthracis CapD inhibitors, primary screen, biochemical, fluorescence intensity | z-score (no concentration beside the values) | hit rate 0.23% among 140,000 | CapD gamma-glutamyltranspeptidase (Bacillus anthracis Ames Ancestor) | purified CapD enzyme, fluorescence intensity read-out; stronger effect = lower value; some hits fall short of the stated cut;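 active = z-score under -4 in either of two replicates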;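 note: stock transfer was 100 nL into about 40 µL; score is relative to mean and spread of the plate; one replicate is shown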
AID504770: growth inhibition of E. coli YBA685, primary screen, V. cholerae RctB inhibitors; z-score (no concentration beside the values); hit rate 0.27% among 130,000; E. coli YBA685 rctB-dependent plasmid, OD600 growth, 3 h; stronger effect = lower value; AID 504770, 2011;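 active = z-score under -2 on both plates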;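 note: wells of about 30 µL received 100 nL stock; score is relative to mean and SD of the test wells; the first replicate is given; strong numbers were not always called active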
The depositor's hits bear a star; nt = no result given; & = joins results of further samples. The order is random. About 0.37% of those tested had a hit in this group.

Results follow in this order: CapD inh | AID504770
- Cc1cc(=O)oc2c(/C=N/c3ccccn3)c(O)ccc12
  3.53 | 0.1
- COc1cccc(NC(=O)Nc2nncs2)c1
  -0.13 | 0.8
- COc1ccc(NC(=O)CSC2=C(C#N)C(c3ccccc3C)C3=C(CCCC3=O)N2)cc1 (stereo not given)
  12.5 | 0
- C=CCn1c2nc3ccccc3nc2c2cccc(C)c21
  -2.59 | nt
- Nc1cc(Cl)c(N2CCOCC2)cc1N1CCOCC1
  0.22 | 0.25
- S=c1[nH]c2ccc(Cl)cc2o1
  nt | -2*
- CCC(C(=O)Nc1ccccc1O)c1ccccc1 (stereo not given)
  0.18 | -0.05
- CCN(CC)C(=O)CSc1nc2ccccc2cc1C
  nt | 0.65
- COc1ccc(S(=O)(=O)N2CCN(c3ccc(C#N)cc3)CC2)cc1
  -0.175 | nt
- CC(C)n1c(/C=C/[C@@H](O)C[C@@H](O)CC(=O)O)c(-c2ccc(F)cc2)c2ccccc21
  -1.17 | nt
- CCC(C(=O)c1ccccc1)n1nc(-c2cccs2)ccc1=O (stereo not given)
  nt | 0.35
- Cc1ccc(SCc2[nH]n(-c3nc4ccccc4s3)c(=O)c2C=NCc2ccco2)cc1
  11.4 | -0.9
- c1nc(NCCCN2CCOCC2)c2c3c(sc2n1)CCCC3
  -0.58 | -0.5
- CCc1ccc(-n2c(N(C)Cc3ccccc3)nc3ccccc3c2=O)cc1
  0.65 | 0.9
- CC(C)=C1SC(=O)NC1=O
  nt | 0.05
- CC(C(=O)NCC1CCCO1)n1cccc1C(=O)c1ccccc1 (stereo not given)
  -0.955 | -0.1
- COCCOC(=O)C1=C(C)NC(=O)CC1c1cccc(Cl)c1Cl (stereo not given)
  -0.605 | nt
- OCCN=Cc1[nH]c2ccccc2c1O
  0.735 | -3.1
- Cc1nc(N2CCOCC2)c2c(C)c(C(=O)Nc3cccc(Cl)c3)sc2n1
  -0.36 | nt
- O=C(O)P(=O)(O)O
  -0.295 | 0.1
- O=C(/C=C/c1ccccc1)Oc1ccccc1
  -1.01 | 2.25
- COc1cc(-c2nc3sc4c(c3c(=O)[nH]2)CCCC4)ccc1OCCOCCOc1ccc(C)c(C)c1
  1.38 | nt
- Cc1ccc(-n2c(C)nnc2SCc2nc(-c3ccc(Cl)cc3)no2)cc1C
  -0.74 | -0.85
- COCc1cc(=O)n2[nH]c(C(C)(C)C)cc2n1
  6.9 | nt
- C=CCn1cc(/C=c2\sc3n(c2=O)C(c2ccc(OC)cc2)C(C(=O)OCC)=C(C)N=3)c2ccccc21 (stereo not given)
  -0.765 | nt
- COc1cc(OC)c2c(c1)C(=O)OC2OC (stereo not given)
  0.44 | -0.15
- N#Cc1cccc(C(=O)NC2CCCC2)c1
  nt | -0.1
- O=C(c1ccncc1)N1CCN(C(=O)c2ccncc2)CC1
  0.625 | 0.15
- O=C(CSc1cccc2cccnc12)Nc1nc2c(ccc3ccccc32)s1
  1.43 | nt
- CCC(Sc1nc2ccccc2s1)C(=O)O (stereo not given)
  0.87 | 0.4
- O=C(Cn1cnc2ccccc2c1=O)Nc1ccccc1
  nt | -0.2
- O=C(CSc1nc2ccccc2c(=O)n1-c1ccccc1)NC1CCCCC1
  -0.395 | -0.5
- O=C(CCC(=O)NN1CCOCC1)NC1CCN2CCCc3cccc1c32 (stereo not given)
  -0.18 | nt
- Cc1ccc(-c2ccc(C#N)c(=O)n2CC(=O)N2CCNC(=O)C2(C)C)cc1
  nt | 0.2
- O=C(O)c1cncc(C#CCC2CCCCC2)c1
  0.245 | 0.55
- O=C1N/C(=N\S(=O)(=O)Cc2ccccc2)S/C1=C\c1ccco1
  nt | -0.4
- COc1ccc(CNCc2ccc(OC)c(OC)c2)cc1C
  -0.095 | -0.85
- O=C1CC(c2cccc(F)c2)C2=C(CC(c3ccc(F)cc3)CC2=O)N1 (stereo not given)
  -0.36 | 1.65
- CCNS(=O)(=O)c1ccc2c(c1)oc(=O)c1cc(S(=O)(=O)NCC)ccc12
  nt | -0.15
- COc1ccc(CNc2nc(-c3cccs3)c(C#N)c(=O)n2C)cc1
  8.89 | -0.25
- CCCCCCCCCCCCCCCCC1CCCC/C1=N/O (stereo not given)
  0.62 | nt
- O=C(COc1ccccc1)NCc1ccncc1
  0.015 | -0.8
- C=CCN(C(=O)CSc1nnc(CC)n2c1cc1oc(C)cc12)c1ccccc1
  0.665 | 0.05
- COc1ccc(C(=O)N2c3ccccc3N=C(c3ccccc3)CC2c2ccccc2)cc1 (stereo not given)
  -0.565 | nt
- Cc1cccc(-c2nnc(SCC(=O)C34CC5CC(CC(C5)C3)C4)n2Cc2ccco2)c1
  nt | 0.55
- CCC(=O)NC1(c2nnnn2-c2cccc(Cl)c2)CCCCC1
  -0.29 | nt
- Cc1ccsc1/C=N/NC(=O)CSc1nnc(-c2ccccc2)n1-c1ccccc1
  -0.795 | -0.8
- O=C(OCc1ccccc1Br)N1CCC(C(O)(c2ccccc2)c2ccccc2)CC1
  -0.495 | nt
- CCOC(=O)C1=C(c2ccccc2)OC(N)=C(C#N)C1c1ccncc1 (stereo not given)
  nt | -0.1
- O=c1cc(Cn2ncc(Cl)c(Cl)c2=O)[nH]c(=O)[nH]1
  nt | -0.6
- Cc1ccccc1C(=O)NCC(=O)c1ccc(Br)cc1
  0.335 | nt
- CCc1nnc(NC(=O)CCc2cccs2)s1
  -0.445 | -0.7
- O=C(N/N=C\c1ccncc1)c1ccc(COCC(F)(F)F)cc1
  -0.675 | 0.65
- O=C(/C=C/c1ccco1)N/C(=C\c1ccc2c(c1)OCO2)C(=O)N1CCCCCC1
  nt | 2
- CCOc1ccc(CCNC(=O)C2=C(C)C(=O)OC23CCC(C)CC3)cc1 (stereo not given)
  0.175 | -0.2
- COc1ccc(Oc2coc3cc(OC(=O)N4CCOCC4)ccc3c2=O)cc1
  -0.76 | 0.3
- N#CC1=C2Sc3ccccc3N2C(=N)/C(=C2\Nc3ccccc3S2)C1c1ccc(C#N)cc1 (stereo not given)
  -0.17 | nt
- COC(=O)c1cc(Br)ccc1OC(=O)c1cccnc1
  -0.035 | -0.9
- Oc1c(Br)cc(Br)cc1C=Nc1ccc(Cc2ccc(N=Cc3cc(Br)cc(Br)c3O)cc2)cc1
  0.67 | nt
- Cc1cc(=O)n2ncnc2n1CC(=O)NN
  -0.695 | 0.65

Laid out differently: entries from further up.
Molecule,CapD inh,AID504770
Cc1ccsc1/C=N/NC(=O)CSc1nnc(-c2ccccc2)n1-c1ccccc1,-0.795,-0.8
O=C1CC(c2cccc(F)c2)C2=C(CC(c3ccc(F)cc3)CC2=O)N1 (stereo not given),-0.36,1.65
CCN(CC)C(=O)CSc1nc2ccccc2cc1C,nt,0.65
Cc1ccccc1C(=O)NCC(=O)c1ccc(Br)cc1,0.335,nt
O=C(CSc1cccc2cccnc12)Nc1nc2c(ccc3ccccc32)s1,1.43,nt

The list continues.
Results follow in this order: CapD inh | AID504770
- CC(=O)Nc1sc2c(c1C#N)CCc1ccccc1-2
  0.79 | 1.3
- C=CCN(CC=C)CC(O)Cn1c2ccccc2c2ccccc21 (stereo not given)
  4.73 | nt
- CCCNC(=O)Nc1ccc2nc(N3CCN(C)CC3)cc(C)c2c1
  75.9 | -0.65
- C/C=C/C(=O)Nc1ccc(N2CCN(c3ccc(C(F)(F)F)cn3)CC2)nc1
  -0.425 | 0.05
- Cn1cc(NC(=O)N2CCCc3ccccc32)c2ccccc2c1=O
  30.7 | -0.55
- O=C(O)/C=C/C(=O)N1CCN(c2ncnc3scc(-c4ccccc4)c23)CC1
  0.535 | 1.4
- CS(=O)(=O)N1CCCc2cc(C(=O)N(CC(=O)Nc3ccccc3C(F)(F)F)Cc3ccco3)ccc21
  nt | 0.3
- CC1CCCCN1c1nc2ccccc2n2cnnc12 (stereo not given)
  0.2 | 1
- O=C(c1ccccc1)c1cnc2cc3c(cc2c1N1CCN(c2ccccc2)CC1)OCCO3
  nt | -1.1
- COc1cc(C(=O)N/N=C/c2cccc(OCc3ccccc3)c2)cc(OC)c1OC
  -0.975 | nt
- CCCOC(=O)C1=C(C)NC2=C(C(=O)CC(c3ccc(OC)c(OC)c3)C2)C1c1ccc(OC)cc1OC (stereo not given)
  14.7 | nt
- CC(C)(C)C1CCC2(CC1)C(C#N)C2(C#N)C(=O)c1ccccc1 (stereo not given)
  -0.03 | -0.4
- CC(C)N1CCN(Cc2ccc(F)cc2)CC1
  0.635 | 0.35
- CCOc1ccc(N(CC(=O)NN=C2CCCCC2)S(C)(=O)=O)cc1
  0.285 | -2.55
- Ic1cccc(-c2nc(-c3ccccc3)[nH]c2-c2ccc(-c3nc(-c4ccccc4)[nH]c3-c3cccc(I)c3)cc2)c1
  4.21 | nt
- O=C(Nc1ccccc1)Nc1ccccc1Sc1nccc(C(F)(F)F)n1
  0.33 | 1.8
- O=C(Cn1nc(-c2ccc(Cl)cc2)ccc1=O)NC1CCCC1
  4.46 | -0.4
- O=C1C2C(C(=O)N1C13CC4CC(CC(C4)C1)C3)C1C=CC2C12CC2 (stereo not given)
  nt | -0.25
- CCC(C)NC(=O)NCc1c(C)nn(C)c1C (stereo not given)
  0 | -0.4
- Cc1[nH]c2ccccc2c1C(=O)C(C)OC(=O)C1CC1 (stereo not given)
  nt | -0.7
- COc1ccccc1CNC(=O)C(CC(C)C)NS(=O)(=O)c1ccc2nc(C)sc2c1 (stereo not given)
  0.345 | 0.3
- O=C1CSC(c2ccccc2)C(=O)N1c1ccc(Cl)cc1Cl (stereo not given)
  -0.44 | nt
- Cc1nc2ncnn2c(C)c1CCC(=O)NCCCc1ccccc1
  -0.735 | -0.7
- Cc1cc(=O)n(CC(=O)NC2CCCCC2)c2c1c(C)nn2-c1ccccc1
  0.19 | 0.4
- CC(C)C(=O)c1cn(CC(=O)NCc2cccs2)c2ccccc12
  nt | 0.25
- C/C(COc1ccc(Cl)cc1Cl)=N\O
  -0.94 | nt
- Cc1cc(C(=O)O/N=C/c2c(Cl)cccc2Cl)nn1C
  0.78 | -0.2
- CC(C)CC(=O)Nc1ccc(C(=O)Cn2nnc(-c3ccccc3)n2)cc1
  nt | 0.95
- Cc1ccccc1C(=O)Cc1ccc(C(N)=O)cc1
  0.595 | -0.5
- CC1CC/C(=C/c2ccc(Cl)cc2)C(=O)C1 (stereo not given)
  -3 | -0.95
- CCN(CC)S(=O)(=O)c1cccc(C(=O)NN)c1
  0.525 | 0.1
- CNC(=O)Cn1nc(C)c(S(=O)(=O)N(C)C)c1C
  nt | -0.15
- COc1cc(Br)cc(/C=C2/C(=O)NC(=O)N(c3ccc(Cl)cc3)C2=O)c1O
  -0.26 | nt
- COc1cccc(-n2nc(C(=O)Nc3nc4ccc(OC)cc4s3)c3ccccc3c2=O)c1
  -0.39 | nt
- CCOC(Cn1c(SCC(=O)Nc2cc(C)on2)nc2ccccc2c1=O)OCC
  0.675 | 0.1
- CC1CCCCC1NC(=O)CSc1ccccc1 (stereo not given)
  -0.335 | -0.75
- COc1ccc(-n2cc(C(=O)NC(C)Cn3c(=O)oc4ccccc43)nn2)cc1 (stereo not given)
  -0.13 | 0.5
- CCCN(CCC)S(=O)(=O)c1ccc(C(=O)O)cc1
  2.55&0.125 | 0.45
- O=C(Cn1cc(S(=O)(=O)Cc2ccccc2)c2ccccc21)Nc1ccon1
  nt | -1.4
- CCn1c(CC(=O)Nc2ccccc2)nnc1SC(C)C(=O)Nc1ccc2c(c1)OCO2 (stereo not given)
  nt | 1.35
- COc1cc(OC)cc(C(=O)OCCC2CCCCN2C2=NS(=O)(=O)c3ccccc32)c1 (stereo not given)
  0.55 | nt
- COc1cc(C2N(c3cc(C)on3)C(=O)C3CCCN32)cc(OC)c1OC (stereo not given)
  0.27 | -0.35
- CCOc1ccc([C@@H]2[C@@H](C(=O)C34CC5CC(CC(C5)C3)C4)N3c4ccccc4C=C[C@@H]3C2(C#N)C#N)cc1
  2.08 | nt
- O=C(NCCc1ccccn1)c1cc(Cl)ccc1Cl
  nt | 0.7
- Cc1ccc(Nc2nc(C)cc(C)n2)c(C(=O)O)c1
  6.22 | -0.1
- Cc1sc2[nH]c(=S)[nH]c(=O)c2c1C
  -0.72 | nt
- Cc1ccc(-c2nn(-c3ccccc3)cc2C(=O)N2CCCc3ccccc32)o1
  nt | 1.4
- CCN1CCSc2ccc(C(=O)N3CCC(C)CC3)cc21
  45.1 | 0.25
- COc1ccc(Cl)cc1NC(=O)c1cnn(-c2ccc(F)cc2)c1C1CCNCC1
  -0.16 | 1.25
- CCOc1ccc(NC(=O)CSC2=C(C#N)C(c3ccccc3[N+](=O)[O-])CC(=O)N2)cc1 (stereo not given)
  -0.22 | nt
- COC(=O)c1cc(OC)c(OC)c(OC)c1NC(=O)c1cc2ccccc2oc1=O
  -0.615 | nt
- CC(=O)Nc1cccc(OCCCN2CCS(=O)(=O)CC2)c1
  1.01 | 1.75
- COC(CN(C)C(=O)c1cc2c(s1)-c1ccccc1OC2)OC
  0.08 | 1.55
- O=C(CSc1nnnn1-c1ccc2c(c1)OCCO2)NC1CCCC1
  nt | -0.2
- C/C(=N/OC(=O)c1ccccc1)c1oc(C)nc1C
  0.835 | -0.05
- CCOC(=O)N1CCN(C(=O)c2sc3ncnc(N4CCN(c5ccccc5OC)CC4)c3c2C)CC1
  -0.23 | nt
- Cc1ccc2nc(SC(C)C(=O)N3CC(C)OC(C)C3)[nH]c2c1 (stereo not given)
  nt | 1.25
- Fc1ccc(N=CNc2ccc(F)cc2F)c(F)c1
  -0.405 | -0.55

Some values from the entries so far:
AID504770 result of `COc1ccccc1CNC(=O)C(CC(C)C)NS(=O)(=O)c1ccc2nc(C)sc2c1` (stereo not given) reads 0.3
AID504770 result of `O=C1N/C(=N\S(=O)(=O)Cc2ccccc2)S/C1=C\c1ccco1` reads -0.4

Screens: PubChem BioAssay, ICCB-Longwood Screening Facility, Harvard Medical School
